NPR1 antag – Natriuretic polypeptide receptor (hNpr1) antagonism - Primary qHTS; 1.6% of 76,000 active; HEK293 hNpr1 GloSensor cGMP, ANP-stimulated luminescence; Atrial natriuretic peptide receptor 1 (Homo sapiens), P16066; Potency, µM (highest dose often 46.3 µM), inactives show at the highest dose activity change, negative = inhibition, hits mostly inhibitors; active = well fitted inhibition curve with a large enough effect; inconclusive = small, poorly fitted or top-dose-only effect; inactive = no such curve, though single readings can be large or run the other way;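 also: nearly all actives have a fitted effect of over 60% in size; nearly all hits also lower the signal before the agonist is added; a reference antagonist and vehicle were the controls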
Target sequence (P16066 whole entry, looked up): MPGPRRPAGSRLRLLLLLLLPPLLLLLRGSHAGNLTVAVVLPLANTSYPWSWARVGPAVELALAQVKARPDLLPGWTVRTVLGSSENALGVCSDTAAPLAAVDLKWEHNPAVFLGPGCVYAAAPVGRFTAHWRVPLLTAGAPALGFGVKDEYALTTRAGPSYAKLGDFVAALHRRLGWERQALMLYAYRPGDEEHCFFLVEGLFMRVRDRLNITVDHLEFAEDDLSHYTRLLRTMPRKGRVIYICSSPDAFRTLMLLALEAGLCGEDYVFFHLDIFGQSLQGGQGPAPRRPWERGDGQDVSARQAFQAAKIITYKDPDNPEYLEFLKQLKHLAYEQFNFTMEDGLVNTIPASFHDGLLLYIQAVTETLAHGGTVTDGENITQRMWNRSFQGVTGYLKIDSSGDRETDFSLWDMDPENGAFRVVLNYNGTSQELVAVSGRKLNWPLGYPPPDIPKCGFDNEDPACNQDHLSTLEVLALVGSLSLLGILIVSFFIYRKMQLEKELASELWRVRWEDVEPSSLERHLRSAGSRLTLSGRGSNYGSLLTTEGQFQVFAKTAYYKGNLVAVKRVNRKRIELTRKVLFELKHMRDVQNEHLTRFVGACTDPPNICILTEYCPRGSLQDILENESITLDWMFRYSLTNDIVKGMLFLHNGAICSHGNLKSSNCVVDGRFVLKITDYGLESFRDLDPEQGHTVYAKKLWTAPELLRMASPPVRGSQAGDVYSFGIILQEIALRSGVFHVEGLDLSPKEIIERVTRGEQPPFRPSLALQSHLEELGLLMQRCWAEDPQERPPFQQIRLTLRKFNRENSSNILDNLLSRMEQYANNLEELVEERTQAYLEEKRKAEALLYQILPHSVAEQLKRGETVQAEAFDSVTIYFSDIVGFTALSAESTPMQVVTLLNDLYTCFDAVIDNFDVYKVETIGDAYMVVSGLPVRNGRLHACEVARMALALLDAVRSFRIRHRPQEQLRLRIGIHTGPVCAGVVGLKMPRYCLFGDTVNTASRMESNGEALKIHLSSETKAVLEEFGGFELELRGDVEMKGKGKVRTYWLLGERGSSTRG
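Compound pre-incubated 30 min at room temperature on GloSensor-loaded HEK293 cells stably carrying hNpr1 and the pGS-40F cGMP biosensor. Stimulation uses hNppA at 0.1 nM final; luminescence is taken at baseline and 20 min post-agonist.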
Active calls of the source: *; [ ] = another dose, or the depositor's remark. % is scaled to controls: 0 for no effect and ±100 for the full control effect; potency is read from the fitted curve at half-maximal effect. Only part of the results is shown, so the mix of outcomes need not match the whole.

The first 2 records, ahead of the listing:
Screening COc1nc2nc(CCc3ccccc3)n(C)c2cc1-c1cccc(CO)c1 returned NPR1 antag -1.6%[70.6 µM].
COc1ccc(S(=O)(=O)N2CCc3c(C(=O)N(C)C)cccc32)cc1 was read as NPR1 antag -1.4%.

The whole of this part (from the top)
Screening COc1nc2nc(CCc3ccccc3)n(C)c2cc1-c1cccc(CO)c1 returned NPR1 antag -1.6%[70.6 µM].
COc1ccc(S(=O)(=O)N2CCc3c(C(=O)N(C)C)cccc32)cc1 was read as NPR1 antag -1.4%.
For CCCCc1ncc(CN2CCN(Cc3ccccc3)CC(O)C2)[nH]1 (centres undefined) the results were NPR1 antag 0.7%.
Screening CC(C)N1CCC(N2C[C@@H](CO)[C@H](c3nc(C4CC4)no3)C2)CC1 returned NPR1 antag -2.1%.
O=C(c1cccc(F)c1)N1CCC(Oc2cccnc2)C1 (centres undefined) was read as NPR1 antag 2.9%.
Screening CNC(=O)[C@@H]1CCCC[C@@H]1c1nc(-c2ccncc2)nn1CCO returned NPR1 antag 1.4%.
For O=C1CCN(S(=O)(=O)c2ccccc2)CCCN(Cc2ccccc2)CCN1 the results were NPR1 antag 1.5%.
CC(C)=CCN1CCN(C(=O)CCOc2ccccc2)[C@H]2CS(=O)(=O)C[C@H]21 was read as NPR1 antag 5.0%.
COCCNC(=O)C[C@@H]1C[C@H]2O[C@H](CNC3CCN(C)CC3)[C@@H](O)[C@H]2O1 was read as NPR1 antag 3.0%[70.6 µM].
For O=C(NCc1ccccc1)C1CCCN(C2CCN(C(=O)c3ccoc3)CC2)C1 (centres undefined) the results were NPR1 antag 4.3%.
CCC(=O)N1CCC(C2CCN(CCC(C)C)C2)CC1 (centres undefined) was read as NPR1 antag 0.8%.
For CCN(CC)C(=O)C(NC(=O)c1ccc(F)cc1)C1CCN(C(=O)CC(C)C)CC1 (centres undefined) the results were NPR1 antag -1.0%.
For COc1ccc2c(c1)OCC(C(=O)N1CCCN(c3ncccn3)CC1)C2 (centres undefined) the results were NPR1 antag -0.6%.
Screening COc1ccc(C(=O)N2CCC(N3C(=O)C(OC)C34CCOCC4)CC2)cc1F (centres undefined) returned NPR1 antag -7.8%.
`COCC(=O)N1CCCC(C(=O)NCc2ccccc2OC)CCNC(=O)CC1` (centres undefined) gave NPR1 antag 1.8%.
Cc1ccc(-c2cc3c(=O)n(CCNC(=O)Cc4ccsc4)ccn3n2)c(C)c1 was read as NPR1 antag 0.0%.
CSCC(=O)N1C[C@@H](NC(=O)Nc2cccc(SC)c2)C[C@H]1C(=O)N(C)CC(N)=O was read as NPR1 antag 2.0%.
Screening CCNC(=O)Nc1ccc(OCC(=O)NCc2ccc(N3CCOCC3)cc2)nc1 returned NPR1 antag -0.9%.
`O=C1NC2(CCN(Cc3ccsc3)C2)Oc2ccccc21` (centres undefined) gave NPR1 antag 15.1%[70.6 µM].
Screening CC(C)c1ccc(CN2CC(CNC(=O)c3cnn(C)c3)C3(C2)CN(c2ccccc2)C3)cc1 (centres undefined) returned NPR1 antag -3.1%.
For CNC(=O)[C@@H](c1ccc(OC)cc1)N1CCC[C@H]1C(=O)N1CCOCC1 the results were NPR1 antag 3.6%[70.6 µM].
COc1ccc(C2(C(=O)N[C@@H]3CN(c4ncccn4)C[C@H]3CN(C)C)CC2)cc1 was read as NPR1 antag 2.6%.
O=C(O)C1CN(C(=O)c2csc(-c3cccs3)n2)CCO1 (centres undefined) was read as NPR1 antag 3.1%.
Cc1cccc(-c2cn[nH]c2C2CCN(C(=O)c3ccc4nccnc4c3)CC2)c1 was read as NPR1 antag 0.3%.
For CCCOc1ccccc1C(=O)N1CCc2onc(-c3ccccc3)c2C1 the results were NPR1 antag inconclusive.
`Cc1cnc(C2CC2)n1CCNC(=O)c1cncn1C` gave NPR1 antag 2.3%.
Screening Cc1nn(-c2ccc(C(F)(F)F)cc2)c(C)c1[C@@H]1C=C[C@@H](NC(=O)COCC(=O)O)C1 returned NPR1 antag 6.0%.
`CNC(=O)[C@@H]1C[C@@H](n2cc(CNC(=O)Nc3cccc(Cl)c3)nn2)CN1` gave NPR1 antag 3.0%.
Screening COC(=O)CC1C(=O)NCCN1C(=O)c1ccc2nc(C3CCCCC3)oc2c1 (centres undefined) returned NPR1 antag 21.1%.
For O=C(NC1C[C@H]2CC[C@@H](C1)N2C(=O)CC1CCCC1)c1ccc(F)cc1 (some centres undefined) the results were NPR1 antag -5.3%.
`COCCN1C(=O)c2cccn2CC1CNC(=O)c1cccc(F)c1` (centres undefined) gave NPR1 antag -4.2%.
`COC(=O)CCNC(=O)C1CN(S(=O)(=O)c2cccnc2)CC12CCCCC2` (centres undefined) gave NPR1 antag 3.5%.
`Cc1ccc(C(=O)N2CCc3sc(C(=O)NCc4cc(F)cc(F)c4)cc3C2)cc1` gave NPR1 antag -10.6%.
CC(C)=CCC1(CO)CCCN(c2ncccc2C(=O)N2CCCC2)C1 (centres undefined) was read as NPR1 antag 1.6%.
Screening N#Cc1ccccc1S(=O)(=O)N[C@H]1CO[C@H]2[C@@H]1OC[C@@H]2n1nnnc1Oc1cccc(N2CCOCC2)c1 returned NPR1 antag 3.5%.
For CN(C)c1ccc(C(=O)N2CCC[C@H]2c2nc(-c3ccccc3)no2)cc1 the results were NPR1 antag -8.9%.
`CC(C)Cn1c(CN(C)CCC2CCCCO2)cnc1S(=O)(=O)Cc1ccccc1` (centres undefined) gave NPR1 antag 2.8%.
Screening CN(C)C(=O)c1n[nH]c2c1CN(C(=O)c1cccc(C(F)(F)F)c1)CC2 returned NPR1 antag 3.8%.
Screening CC(C)Oc1ccc(-c2noc(-c3ncn4c3COC(c3ccc(F)cc3)C4)n2)cc1 (centres undefined) returned NPR1 antag 1.8%.
For COc1cc(C(=O)NCc2c(C)noc2C)ccc1OC1CCN(C(C)=O)CC1 the results were NPR1 antag 5.8%.
Screening COc1ccc(C(=O)N2CCN3C(=O)N(Cc4ccccc4)C(=O)[C@H]3C2)cc1 returned NPR1 antag -0.6%[70.6 µM].
`COC[C@@H]1CN(C(=O)c2ccc(C(C)(C)C)cc2)C[C@H]1c1nc(C)no1` gave NPR1 antag 4.1%.
`CO[C@H]1[C@H](NC(=O)c2cn3ccsc3n2)c2ccccc2C12CCNCC2` gave NPR1 antag 0.7%.
Screening COc1cc(SC)ccc1C(=O)N[C@H]1CCN2C(=O)[C@@H](CC(=O)O)NC(=O)[C@@H]2C1 returned NPR1 antag 5.0%[70.6 µM].
For CN1CCC(NC(=O)C(C)(C)Oc2nn(Cc3cccc(Cl)c3)c3ccccc23)CC1 the results were NPR1 antag -26.1%[70.6 µM].
CCO[C@H]1CN(C2CCN(c3ccc(C)c(Cl)c3)CC2)C[C@@H]1O was read as NPR1 antag 1.4%.
`Cc1ccc(C(=O)N2CCC(n3cc(-c4nc(C5CC5)no4)nn3)C2)cc1C` (centres undefined) gave NPR1 antag -27.9%.
`COc1ccc(C(=O)NCC(=O)N2CCCCCCNC(=O)CC2c2ccccc2)c(OC)c1` (centres undefined) gave NPR1 antag -0.6%.
CN(C)C[C@@H]1CN(c2ncccn2)C[C@H]1NS(=O)(=O)c1cccs1 was read as NPR1 antag 5.8%.
Cc1ccc(F)c(C(CC(=O)NCc2ccco2)c2c[nH]c3ccc([N+](=O)[O-])cc23)c1 (centres undefined) was read as NPR1 antag -29.3%.
Screening CN(C)c1ccc(Nc2ncncc2-c2nc(-c3ccccc3)no2)cc1 returned NPR1 antag -4.3%.
`CN(Cc1ccccc1)Cc1cn([C@H]2CO[C@H]3[C@@H]2OC[C@@H]3NS(=O)(=O)c2cccs2)nn1` gave NPR1 antag 2.6%.
CCCS(=O)(=O)N1CCc2n[nH]c(=O)n2CC1 was read as NPR1 antag -2.5%.
`CCN(CC)c1cc(CCC(=O)O)ccn1` gave NPR1 antag -26.7%.
Screening CC1=NS(=O)(=O)N(C)C=C1C(=O)OCc1nc(C2CCCCC2)no1 returned NPR1 antag 12.6µM*.
`COCc1cc(=O)n(CC(=O)Nc2ccc(F)cc2)c(N2CCOCC2)n1` gave NPR1 antag -5.5%.
Screening Cc1cc(C)n(CCC(=O)N2C[C@@H](CO)[C@H](c3ccccn3)C2)n1 returned NPR1 antag -8.1%.
For O=C(N[C@@H]1CN(Cc2ccccc2F)C[C@H]1CO)c1ccccc1 the results were NPR1 antag -1.5%.
For COCc1ccc2c(c1)c(OC(C)(C)C(=O)N1CC(O)C1)nn2Cc1cccnc1 the results were NPR1 antag 1.7%[70.6 µM].
For CCCc1nnc(C[C@@H]2C[C@@H](C(C)C)[C@H](CN3CCN(c4ncccn4)CC3)C=C2C)o1 the results were NPR1 antag 2.5%.
For COC(=O)c1ccc(CN2C(=O)[C@@H]3C[C@@H](O)CN3C3(CN(Cc4ccccc4)C3)C2=O)cc1 the results were NPR1 antag inconclusive.
CS(=O)(=O)N1CCC(C2CCN(C(=O)C3CCOCC3)C2)CC1 (centres undefined) was read as NPR1 antag 6.6%.
CSCC(=O)Nc1ccc2n(c1=O)C[C@H]1C[C@@H]2CN(C(=O)c2ccc(-c3ccccc3)cc2)C1 was read as NPR1 antag -8.5%.
F[C@@H]1CN(Cc2cccnc2)C[C@@H]1OCc1nc2ccc(C(F)(F)F)cc2[nH]1 was read as NPR1 antag -12.0%[70.6 µM].
`CC(C)CC(=O)N1CCc2ccc(S(=O)(=O)N(C)Cc3nccs3)cc2C1` gave NPR1 antag -15.8%.
For CC1=C[C@@H](CNC(=O)c2ccc(F)cc2)[C@H](C(C)C)C[C@H]1CC(=O)N1CCN(C)CC1 the results were NPR1 antag -0.9%[70.6 µM].
For CC(C)NC[C@H]1Cn2c(-c3cccc(Cl)c3)cnc2CO1 the results were NPR1 antag 1.0%[70.6 µM].
Screening CCOc1ccccc1C1NC(=O)N(CC(=O)Nc2ccc(OC)cc2)C2=C1C(=O)OC2 (centres undefined) returned NPR1 antag -4.3%.
For CCOCCCNC(=O)C1CCc2ncc(-c3ccsc3)n2C1 (centres undefined) the results were NPR1 antag 4.3%.
`Cn1cnc(C(=O)N2CCCN(S(=O)(=O)c3ccccc3)CCC(=O)NCC2)c1` gave NPR1 antag 0.8%.
COc1ccccc1CNC(=O)c1cc2c(s1)CCN(C(=O)c1ccccc1)C2 was read as NPR1 antag -19.0%.
`CN1CCN([C@@H]2[C@H](O)[C@H](CO)O[C@@H]2CNS(=O)(=O)c2ccccc2)CC1` gave NPR1 antag 5.0%.
COCCc1nncn1C1CCN(S(=O)(=O)c2cccc(F)c2)CC1 was read as NPR1 antag -3.3%.
Cc1ccccc1OCc1nc(C2CN(C(=O)c3ccc4nc[nH]c4c3)C2)no1 was read as NPR1 antag -21.5%.
For CC(C)(C)C(=O)Nc1ccc([C@H]2OCC(=O)N(Cc3ccccc3)[C@@H]2CO)cc1 the results were NPR1 antag -1.2%[70.6 µM].

Entries listed so far that contain an aryl thioether with sulfur outside any ring (two):
CSCC(=O)N1C[C@@H](NC(=O)Nc2cccc(SC)c2)C[C@H]1C(=O)N(C)CC(N)=O was read as NPR1 antag 2.0%.
Screening COc1cc(SC)ccc1C(=O)N[C@H]1CCN2C(=O)[C@@H](CC(=O)O)NC(=O)[C@@H]2C1 returned NPR1 antag 5.0%[70.6 µM].

Going on with the list.
`OCc1cccc(-c2cc3c(cn2)CN(Cc2ccccc2)CCN3)c1` gave NPR1 antag 2.4%[70.6 µM].
Screening CCCCN1C(=O)[C@@H]2C[C@@H](O)CN2C2(CN(CC3CC3)C2)C1=O returned NPR1 antag 3.5%[70.6 µM].
Screening CS(=O)(=O)N[C@@H]1C[C@H](Cn2cc(-c3cccnc3)nn2)[C@@H](O)[C@H]1O returned NPR1 antag 2.4%[70.6 µM].
`CN(C)S(=O)(=O)N1CCCC1C(=O)Nc1ccc(-c2cccc(F)c2)cc1` (centres undefined) gave NPR1 antag 2.1%.
Screening O=C(c1ccc(F)cc1)N1C[C@@H]2OCC(=O)N(Cc3ccccn3)[C@@H]2C1 returned NPR1 antag -4.4%[70.6 µM].
For O=C(CCn1ccn2nc3c(c2c1=O)CCCC3)NCc1ccco1 the results were NPR1 antag 1.7%.
`Fc1cccc(-c2cc3c(cn2)CN(Cc2ccncc2)CCN3)c1` gave NPR1 antag -23.3%[70.6 µM].
`CC(C(=O)NCc1nc2ccccc2n1C)C1CCOCC1` (centres undefined) gave NPR1 antag 9.3%.
CN(C)C[C@@H]1CN(Cc2ccccn2)C[C@H]1NC(=O)c1ccc2cc[nH]c2c1 was read as NPR1 antag -3.5%.

Five consecutive compounds from above:
Screening COc1nc2nc(CCc3ccccc3)n(C)c2cc1-c1cccc(CO)c1 returned NPR1 antag -1.6%[70.6 µM].
COc1ccc(S(=O)(=O)N2CCc3c(C(=O)N(C)C)cccc32)cc1 was read as NPR1 antag -1.4%.
For CCCCc1ncc(CN2CCN(Cc3ccccc3)CC(O)C2)[nH]1 (centres undefined) the results were NPR1 antag 0.7%.
Screening CC(C)N1CCC(N2C[C@@H](CO)[C@H](c3nc(C4CC4)no3)C2)CC1 returned NPR1 antag -2.1%.
O=C(c1cccc(F)c1)N1CCC(Oc2cccnc2)C1 (centres undefined) was read as NPR1 antag 2.9%.

High-throughput results: PubChem, National Center for Advancing Translational Sciences (NCATS)
